Screening results as filed in PubChem BioAssay.
Menin-MLL FL inh: inhibitors of human menin-MLL interaction, wild-type MLL peptide | AID 1766 | FP activity change, % at 61.4 µM | Fluorescence polarization, fluorescein-MLL peptide displacement from menin | 290,000 tested, under 10 active; inconclusive = falling polarisation curve, or a change in total fluorescence; inactive = total fluorescence flat and polarisation flat or rising; no compound was filed as active; the % refers to the polarisation; negative = inhibition;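 further: % of control where 0% means no effect; inhibitors lower the polarisation; unlabelled MLL peptide was the positive control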
CtBP-E1A blk: blocks the CtBP interaction with E1A; 340,000 compounds, 0.49% hits; activity change, % (test concentration not listed); AlphaScreen GST-E1A/His-CtBP binding, 1536-well; stronger effect = lower value; control for the full effect not named in the record; AID 651724; in the data active means activity change below about -65%; inconclusive means about -30% to -65%; inactive means above about -30%; further: on the % scale 0 is the no-effect control and ±100 the full control effect
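AlphaScreen with 125 nM GST-E1A and 125 nM His-CtBP (5X stocks) in Tris pH 8.0, 300 mM NaCl, BSA, Tween 20, TCEP. Compounds preincubated 2 h at 37 deg C, then glutathione donor/nickel acceptor beads added for 1 h at 37 deg C in dark.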
gsp agonist: gsp mutant agonism; gsp mutant cells, cAMP HTRF, 30 min; control for the full effect not named in the record; AID 624287; 340,000 compounds, 0.13% hits; Potency, µM (top dose mostly 76.9 µM), for the others: at the highest dose activation (cAMP increase), most hits filed as activators; active = well fitted activation curve with a large enough effect; inconclusive = small, poorly fitted or top-dose-only effect, or another doubt; inactive = no such curve, though single readings can be large or run the other way; cell line not stated here;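 further: phosphodiesterase inhibitor Ro 20-1724 added with compounds to block cAMP breakdown; potency means the concentration at half of the fitted maximal effect; nearly all actives have a fitted effect of over 60% in size; about a fifth of the inactives were tested at one dose only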
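Cells in DMEM/10% FBS with G418 were pretreated with compounds in DMSO plus […] (300 uM stock) for 30 min at 37C. cAMP was measured by HTRF (cAMP-d2 plus anti-cAMP antibody-K) after 30 min at room temperature.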
gsp antagonist: antagonists of gsp mutant (McCune-Albright syndrome) | Potency, µM (titrated, usually from 76.9 µM), without a hit: at the highest dose activity change, negative = inhibition, most hits filed as inhibitors | 340,000 compounds, 0.4% hits | gsp-mutant cells, cAMP HTRF, 30 min; control for the full effect not named in the record; active = falling curve of any shape with a large fitted effect; inconclusive = falling curve, mostly with a smaller effect; inactive = flat or rising curve; cell line not stated here;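 further: intracellular cAMP measured with PDE inhibitor Ro 20-1724 present during compound exposure; potency means the concentration at half of the fitted maximal effect; on the % scale 0 is the no-effect control and ±100 the full control effect; nearly all actives have a fitted effect of over 65% in size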
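HTRF cAMP read-out (cAMP-d2 plus anti-cAMP antibody-K in lysis buffer, 30 min RT). Before lysis, cells are exposed to compounds with […] for 30 min at 37C in DPBS containing Ca/Mg, BSA and Tween 20.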
TRPV1 potentiator: human TRPV1 potentiation | potentiation, % at 8.33 µM | 320,000 compounds, 0.02% hits | TRPV1-expressing cells, Fluo-8 calcium influx, capsaicin EC20 potentiation; host cell line not named in the record; control for the full effect not named in the record | AID 540277; active means potentiation above 80%; inconclusive means 30% to 80%; inactive means below 30%; further: 0% is about no effect
Target sequence (Q8NER1 whole entry, looked up): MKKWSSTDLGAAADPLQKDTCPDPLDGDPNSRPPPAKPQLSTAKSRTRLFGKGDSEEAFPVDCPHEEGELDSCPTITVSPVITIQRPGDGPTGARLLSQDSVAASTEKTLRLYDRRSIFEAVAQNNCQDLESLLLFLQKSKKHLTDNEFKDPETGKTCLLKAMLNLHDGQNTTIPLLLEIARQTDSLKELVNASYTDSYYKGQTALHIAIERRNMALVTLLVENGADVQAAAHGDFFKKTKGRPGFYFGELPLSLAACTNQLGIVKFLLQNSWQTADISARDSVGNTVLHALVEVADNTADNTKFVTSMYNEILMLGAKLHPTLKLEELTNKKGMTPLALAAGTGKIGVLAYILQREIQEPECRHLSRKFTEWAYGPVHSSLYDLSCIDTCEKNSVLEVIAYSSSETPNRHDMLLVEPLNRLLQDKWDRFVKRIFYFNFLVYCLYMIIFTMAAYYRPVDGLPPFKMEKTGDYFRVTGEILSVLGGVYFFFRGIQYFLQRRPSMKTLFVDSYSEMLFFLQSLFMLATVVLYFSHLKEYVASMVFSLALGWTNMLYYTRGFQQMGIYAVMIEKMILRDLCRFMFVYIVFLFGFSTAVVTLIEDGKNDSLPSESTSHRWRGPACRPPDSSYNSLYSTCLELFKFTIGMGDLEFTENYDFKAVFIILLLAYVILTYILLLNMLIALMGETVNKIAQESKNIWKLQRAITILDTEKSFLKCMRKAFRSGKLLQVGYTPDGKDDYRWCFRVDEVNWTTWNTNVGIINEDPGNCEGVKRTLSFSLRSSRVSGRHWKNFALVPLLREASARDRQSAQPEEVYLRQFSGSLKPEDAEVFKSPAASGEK
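Fluo-8 calcium influx in TRPV1-expressing cells, kinetic read (ex 480/em 520 nm). Compound added and read 3 min for agonist activity, followed by capsaicin at EC20 final and 2 min further read for enhancement.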
ClpP mod: qHTS Assay for Activators of ClpP. purified B. subtilis ClpP, FRET peptide cleavage, 20 min. Potency, µM (highest dose often 57.5 µM), inactives show at the highest dose activity change, negative = active. 340,000 compounds, 1.9% hits. AID 651965, 2013; active = well fitted falling curve with a large enough effect; inconclusive = small, poorly fitted or top-dose-only effect; inactive = no such curve, though single readings can be large or run the other way; further: potency means the concentration at half of the fitted maximal effect; the source files actives as falling curves though it sought activators and does not explain the sign; nearly all actives have a fitted effect of over 65% in size; many hits overshoot -100%
Target sequence (P80244 whole entry, looked up): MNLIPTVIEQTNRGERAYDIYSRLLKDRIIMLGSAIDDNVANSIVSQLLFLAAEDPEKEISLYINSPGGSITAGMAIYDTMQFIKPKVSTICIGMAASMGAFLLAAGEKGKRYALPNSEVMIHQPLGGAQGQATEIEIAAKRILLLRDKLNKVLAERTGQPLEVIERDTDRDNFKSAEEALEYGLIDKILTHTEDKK
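Buffer: 100 mM Tris/HCl pH8, 100 mM KCl, 0.05% low protease BSA, 2.5% glycerol, 0.01% Tween-20. ClpP 10 microg/mL final; 20 min RT; delta FRET normalized to ADEP and DMSO controls.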
Sfp inh: inhibitors of Bacillus subtilis Sfp phosphopantetheinyl transferase; Q9F4F7; Biochemical Sfp PPTase activity, qHTS; Potency, µM, without a hit: max response, negative = inhibition, actives largely listed as inhibitors; 310,000 compounds, 3.5% hits; AID 1490; active means well fitted inhibition curve with a large enough effect; inconclusive means small, poorly fitted or top-dose-only effect, or another doubt; inactive means no such curve, though single readings can be large or run the other way;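 further: the enzyme is Sfp with the accession as filed and its product quenches rhodamine fluorescence; potency means the concentration at half of the fitted maximal effect; 0% = enzyme reaction without inhibitor and -100% = no enzyme wells; top concentration of the series not given in the record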
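Compounds were incubated with enzyme (final 15 nM) for 15 min at room temperature before substrate addition started the reaction. Fluorescence at 525 nm excitation, 598 nm emission was recorded immediately and after 30 minutes.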
* marks the source's active call; other numbers are inactive results; ? = inconclusive; nt = not tested or not shown; & = joins results of further samples; [ ] = remark or other dose.

Molecule | Menin-MLL FL inh | CtBP-E1A blk | gsp agonist | gsp antagonist | TRPV1 potentiator | ClpP mod | Sfp inh
CCN(CC(=O)O)S(=O)(=O)c1cc(Cl)ccc1Cl | 1.6 | 1 | -36% | -9% | -6 | -0.3% | 33%[activator]
O=C(CSc1ccccc1F)NC(=O)c1ccccc1Br | nt | 10 | -4%[15.4 µM] | -3% | nt | 0.9% | nt
CCCCN(C)CCCNC(=O)CN1C(=O)CSc2ccc(S(=O)(=O)N3CCOCC3)cc21 | -2.2 | 0 | 0%[15.4 µM] | 10% | -1 | -0.7% | 7%
O=C(Nc1cccc(C(F)(F)F)c1)C(Sc1ncnc2ccccc12)c1ccccc1 (centres undefined) | 4.1 | 5 | 0% | 9% | 20 | 4.3% | 12%
O=C(Nc1ccccc1-c1nnn(CC(=O)N2CCOCC2)n1)c1ccc(F)cc1 | -1.0 | -11 | 14% | -7% | -10 | nt | 21%
COC(=O)c1cc2occc2n1Cc1nc(-c2ccc(Cl)cc2)oc1C | 5.0 | 3 | -16% | 2% | 1 | 2.0%&-3.2% | -3%
COC(=O)CCN1CCN(S(=O)(=O)c2cccc(Br)c2)CC1 | -2.1 | -10 | 4%[15.4 µM] | 9% | 9 | 1.7% | 17%
O=C1CN(C(=O)CSc2nc3ccccc3n2CCc2ccccc2)c2ccccc2N1 | 6.5 | -23 | 0% | -11% | -9 | -0.2% | -17%
CCSc1nnc(NC(=O)CC)s1 | -2.4 | -24 | -35%[inhibitor] | 4% | 0 | -2.9% | -5%
CCCN(C(=O)c1cccs1)c1c(N)n(Cc2ccccc2)c(=O)[nH]c1=O | nt | 7 | -15% | 3% | -2 | 0.5% | nt
Cc1ccc(S(=O)(=O)CC(=O)N(C)C)cc1 | 4.9 | -2 | -35%[inhibitor] | 6% | 6 | -5.5% | 19%
Cc1nn(C)cc1CNC(=O)c1ccccc1Br | 0.5 | 10 | ? | 2% | 3 | 0.9% | -7%
Clc1ccc(OCc2cnc(Cl)s2)cc1 | 3.2 | 25 | ? | 13% | 14 | -13% | -2%
CCC(C)N(C(=O)COC(=O)c1ccc(N)c([N+](=O)[O-])c1)C1CCS(=O)(=O)C1 (centres undefined) | nt | 9 | 2% | nt | nt | 0.0% | nt
CSc1nc(C)cc(SCC(=O)Nc2ccc(Cl)cc2Cl)n1 | 4.9 | 8 | -34%[inhibitor] | -30% | 4 | 0.9% | -7%
COc1ccc(/C=N/NC(=S)Nc2c(C)n(C)n(-c3ccccc3)c2=O)cc1OC | 3.0 | -23 | -7%[15.4 µM] | 19% | nt | nt | 45µM*
COCCCn1c(SCCc2ccccc2)nc2cc(OC)c(OC)cc2c1=N | 0.8 | -5 | -7% | -13% | -24 | -23% | ?
Cc1cc(C)n2nc(SCC(=O)Nc3ccccc3F)nc2n1 | nt | 2 | -20% | -2% | 6 | 1.0% | nt
CN(Cc1cccnc1)Cc1cn(C)nc1-c1cccc(Cl)c1 | 2.5 | 7 | 10% | -9% | 12 | 1.5%&1.4% | 18%
COc1ccc(-n2c(C)nn(C)c2=O)cc1 | 2.9 | 0 | -3% | 8% | -2 | -3.5% | 11%
CC(C)Cn1c(C(C)C)nc([N+](=O)[O-])c1S(=O)(=O)c1ccc(F)cc1 | 2.9 | 0 | 15% | -9% | 0 | 0.2% | 5%
CCN(CC)CCNC(=O)c1c(O)c2cccc3c2n(c1=O)CCC3 | 2.5 | -17 | -9% | -12% | 3 | ? | -8%
CC1CCCN(C(=O)CSc2nnc3ccccn23)C1 (centres undefined) | nt | nt | -3% | 7% | 0 | 2.0% | nt
O=[N+]([O-])c1cccc(C2Nc3ccccc3CO2)c1 (centres undefined) | nt | 4 | 28% | nt | nt | 2.0% | nt
Cc1ccc(Cn2cccc(NC(=O)c3ccco3)c2=O)cc1 | 4.2 | 0 | 3% | 23% | -10 | 0.5% | -12%
CC1(C)CC(=O)C=C(c2ccc(-c3cccc(C(N)=O)c3)cc2)C1=O | nt | 10 | -26% | nt | nt | 0.0% | nt
Cc1[nH]c2ccc(C(=O)NCCCN3CCOCC3)cc2c1C | nt | 6 | -46%[inhibitor] | 1% | -6 | -1.6% | 5%
CCOC(=O)Nc1ccccc1C(=O)Nc1cc(C)cc(C)c1 | 1.3 | -9 | -3%[15.4 µM] | -6% | ? | -0.9% | 9%
O=C(N/N=C/c1c[nH]c2c1ccc1ccccc12)c1ccc([N+](=O)[O-])cc1 | 6.9 | 4 | -2%[15.4 µM] | -7% | -9 | nt | 2%
O=C(NNC(=S)Nc1ccc(F)cc1)[C@H]1C[C@@H]1c1ccccc1 | 1.0 | 2 | -1% | 2% | -20 | nt | 3%
COc1ccc(-c2cc(C(=O)N3CCCc4ccccc43)no2)cc1OC | -1.4 | 30 | ? | 0% | 14 | 0.2% | -6%
O=C(c1ccc(S(=O)(=O)N2CCCC2)cc1)N1CCCCC1 | nt | -6 | -20% | 9% | 5 | 1.3% | nt
C[C@H](CO)N1C[C@H](C)[C@@H](CN(C)C(=O)Nc2ccc(C(F)(F)F)cc2)Oc2c(NC(=O)CCC(F)(F)F)cccc2C1=O | nt | 5 | nt | ? | nt | 0.4% | nt
COc1ccc(CCNC(=O)c2ccc(C)s2)cc1OC | -0.3 | 0 | 2% | 1% | 8 | nt | -1%
Cc1cc(-c2cc(-c3ccc(Cl)cc3)nc(N)c2C#N)co1 | ? | 3 | -8% | -12% | nt | ? | 10µM*
COc1ccccc1N1CCN(/N=C\c2sccc2C)CC1 | -0.6 | -26 | 9%[15.4 µM] | -15% | -3 | nt | 12%
COc1ccc(-n2cnnc2SCc2csc(-c3ccccc3)n2)cc1 | -0.9 | 4 | ? | -8% | -2 | -11% | -5%
CCc1ccc(OCC(=O)NNC(=S)NC(=O)C2CC2)c(Br)c1 | nt | -16 | 42% | -11% | 25 | 2.0% | 15%
CN(C)c1ccc(C2CC(=O)C=C(Nc3ccccc3N)C2)cc1 (centres undefined) | nt | -12 | ? | -6% | -19 | nt | 4%
CCn1c(O)c(N=NC2=NC(=O)CS2)c2ccccc21 | -0.2 | 0 | -45%[inhibitor] | ? | 2 | -1.3% | -29%
Cc1ccc(CC2CC(=O)N(c3ncccn3)C2=O)cc1 (centres undefined) | ? | 5 | 2%[15.4 µM] | 13% | 5 | -1.6% | 17%
Nc1nc(SCC(=O)Nc2ccccc2-c2ccccc2)n[nH]1 | 1.6 | 3 | ? | -4% | 18 | -1.5% | 4%
Cc1cccc(NC(=S)N2CCC(NC(=O)c3cccc(F)c3)CC2)c1 | 0.7 | 1 | 13%[15.4 µM] | -4% | 29 | nt | 4%
O=C(Nc1nc2c(s1)CCCC2)c1ccc(Br)s1 | 2.7 | -10 | 9% | ? | 0 | -2.6% | -18%
COc1ccc(C(=O)N2CCN(C3CCCCC3)CC2)cc1OC | 2.2 | -6 | -9% | 7% | 16 | -2.2% | -22%
N#CC1=C(N)Oc2cc(N)ccc2C1c1ccc(F)cc1F (centres undefined) | 10 | 5 | 25% | -8% | -4 | nt | 8%
CCc1nnc(NC(=O)CCC(=O)N2CCN(Cc3ccc(F)cc3)CC2)s1 | 4.3 | 1 | 10% | 5% | -1 | -4.3% | 6%
COc1ccc2nc(C)[nH]c(=O)c2c1 | -0.5 | 0 | 4% | 6% | 10 | -15% | 16%
O=C(NC1CCCCC1)C(c1cccs1)N(CC1CCCO1)C(=O)c1csnn1 (centres undefined) | 2.5 | 2 | 1% | 12% | 13 | -1.0% | -10%
Cc1cccc2cc(C#N)c(NCCCNS(=O)(=O)c3ccc(Cl)cc3)nc12 | 1.9 | nt | 2% | ? | 17 | ? | 15%
COc1cc(SC)ccc1C(=O)Nc1ccc2c(c1)CCN2S(C)(=O)=O | 0.5 | 20 | 1% | 12% | -13 | 0.9% | 4%
C/C(=N\NC(=O)c1nnn(-c2nonc2N)c1CN1CCC(C)CC1)c1cccc(Br)c1 | -0.4 | nt | -25% | -13% | -7 | 1.7% | 6%
CCOC(=O)c1c(C)[nH]c(C)c1C(=O)COC(=O)c1sccc1C | nt | -3 | 3% | -12% | -16 | 4.4% | nt
COc1ccc(OC)c(NC(=O)CNC(=O)Cn2ccc3ccccc3c2=O)c1 | 2.5 | 0 | 7% | -1% | nt | -4.9% | 15%
c1ccc2c(c1)NC(c1ccncc1)n1c-2nc2ccccc21 (centres undefined) | 3.2 | -3 | -23% | 2% | -18 | 28µM* | 10%
CCN1CCN(c2cc(C)c3cc(NC(=S)N(CC)CC)ccc3n2)CC1 | 0.2 | nt | -6% | 9% | 0 | -1.1% | 4%
Cc1ccc(-n2nc3c(c2NC(=O)c2cccs2)CS(=O)(=O)C3)cc1C | nt | 8 | 8% | -17% | ? | -0.7% | 0%
COc1ccc(NC(=O)CN(C)C(=O)CCCSc2nc3ccccc3[nH]2)cc1 | nt | 4 | -21% | 7% | 2 | -3.6% | nt
CC(Sc1nnc(-c2ccccc2F)n1C)C(=O)NC1CCCCC1 (centres undefined) | nt | -17 | -15% | 0% | 1 | -0.9% | nt

This is a random part of the collection, and some 5.3% of all compounds hit somewhere here.
